Screening data (PubChem BioAssay)
HSD17B inhib: qHTS Assay for Inhibitors of HSD17B4, hydroxysteroid (17-beta) dehydrogenase 4. recombinant HSD17B10, NADH fluorescence kinetic; many of its hits are not listed in these tables. Potency, µM (top dose mostly 57.1 µM), without a hit: at the top dose activity change, negative = inhibition, usual class: inhibitors. 7.6% of 75,000 active; active = well fitted inhibition curve with a large enough effect; inconclusive = small, poorly fitted or top-dose-only effect; inactive = no such curve, though single readings can be large or run the other way;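 note: the protocol describes HADH2 (HSD17B10) and not the HSD17B4 of the title; nearly all actives have a fitted effect of over 70% in size; most hits overshoot -100% by far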
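His-tagged E. coli-expressed HADH2 at 20 nM in 100 mM Tris-HCl pH 9.0 with 0.01 % Tween-20, preincubated 15 min with compound at room temperature. Reaction with 1 mM NAD+ and 90 uM beta-hydroxybutyryl coenzyme A; NADH fluorescence (360/450 nm) read kinetically over 4 min, last minus first point.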
An asterisk follows results filed as active; ? = inconclusive; [ ] = another dose, or the depositor's remark. % is set by controls: 0 for no effect and ±100 for the full control effect; potency is the fitted concentration of half-maximal effect. The list is partial. The share of hits here may be higher or lower than overall.

| molecule | HSD17B inhib |
| --- | --- |
| Cc1cc(SCC(=O)NC(=O)NCc2ccco2)nc2c(C)cccc12 | ? |
| N#Cc1nc(-c2ccco2)oc1N1CCC(C(N)=O)CC1 | 32µM* |
| COc1cccc(N(CC(=O)NC(C)c2ccccc2)S(C)(=O)=O)c1 (stereo unspecified) | -10% |
| Cc1cc(C)c2nc3c(c(C(=O)O)c2c1)CCC3 | -8% |
| CN(CC(=O)N1CC=C(c2ccccc2)CC1)S(=O)(=O)c1cnc[nH]1 | 3% |
| COc1ccc(NS(=O)(=O)c2ccc(N)c(C(=O)O)c2)cc1 | -5% |
| COc1ccccc1-c1cc(C(F)(F)F)nc(N2CCN(c3ccc(F)cc3)CC2)n1 | -1% |
| COc1ccc(N2C(=O)[C@@H]3Cc4ccccc4CN3C2=O)cc1 | 2% |
| O=C(OCn1nnc2ccccc2c1=O)C1COc2ccccc2O1 (stereo unspecified) | 1% |
| N#CC1=C(N)OC2=C(C(=O)CCC2)C1c1ccc(OC(=O)N2CCOCC2)cc1 (stereo unspecified) | 7% |
| CC1CCC2C(C)(C)C3CC12CC[C@]3(C)O (stereo partly specified) | -1% |
| COc1ccc(C2N=C(N)N=C(N)N2c2ccccc2)cc1OC (stereo unspecified) | 13% |
| CCOc1ccc(C(=O)Nn2cnnc2)cc1 | -6% |
| CC(=O)Nc1ccc(N2C(=O)CC(N3CC(C)OC(C)C3)C2=O)cc1 (stereo unspecified) | -3% |
| Cc1csc(NC(=O)CSc2nnc(-c3ccco3)n2C)n1 | 4% |
| COc1ccc(-c2nc(SC)n(C(=O)c3ccco3)n2)cc1 | 32µM* |
| Cc1ccnc(NC(=O)CCC2CCCCC2)c1 | -7% |
| CC12C=CC3(CN(Cc4ccccc4)C(=O)C3C1C(=O)NCc1ccco1)O2 (stereo unspecified) | 4% |
| CN(Cc1ccco1)C(=O)C(Cc1ccccc1)NS(=O)(=O)c1ccc2c(c1)CCC(=O)N2 (stereo unspecified) | -3% |
| Cc1cccc(OCc2nnc(SCC(=O)N3CCc4ccccc43)n2C)c1 | -3% |
| CCc1cc(C(=O)OC)c(NC(=O)CC2NCCNC2=O)s1 (stereo unspecified) | 2% |
| CCOc1ccc(-n2c(SC)nc3c(c2=O)SCC3)cc1 | 3% |
| CCOC(=O)c1sc(NC(=O)CSc2ncccn2)c(C#N)c1C | 4% |
| Cc1noc(C)c1COC(=O)c1ccc2c(c1)OCCO2 | -1% |
| CCCN(CCC)C(=O)CSc1nc2n[nH]c(C)c2c(=N)n1-c1ccc(OC)cc1 | -8% |
| CCN(CC)CCNC(=O)c1ccccc1C(=O)c1ncc[nH]1 | 1% |
| Cc1cc(S(=O)(=O)Nc2ccccc2C(=O)O)ccc1Cl | -25% |
| NC(=O)C1CCN(C(c2ccccc2F)c2nnnn2Cc2ccco2)CC1 (stereo unspecified) | 2% |
| CC(C)c1ccc(O)c(NC(=O)c2cncc(Br)c2)c1 | 10% |
| O=C(O)[C@H](Cc1ccccc1)N1Cc2ccccc2C1=O | -5% |

Quoted at random: two records from the list
| molecule | HSD17B inhib |
| --- | --- |
| O=C(O)[C@H](Cc1ccccc1)N1Cc2ccccc2C1=O | -5% |
| CN(Cc1ccco1)C(=O)C(Cc1ccccc1)NS(=O)(=O)c1ccc2c(c1)CCC(=O)N2 (stereo unspecified) | -3% |

(next part)
| molecule | HSD17B inhib |
| --- | --- |
| COc1ccc2[nH]cc(CCNc3ccnc(-c4ccccc4C)n3)c2c1 | -5% |
| COC(=O)Cn1nc(-c2ccccc2)c2ccccc21 | 4% |
| O=C1CN2CCN(CC2)CC(=O)Nc2ccc(cc2)S(=O)(=O)c2ccc(cc2)NC(=O)CN2CCN(CC2)CC(=O)Nc2ccc(cc2)S(=O)(=O)c2ccc(cc2)N1 | -9%[11.4 µM] |
| CS(=O)(=O)N(CC(=O)N1CCCCCC1)c1ccc2c(c1)OCCO2 | 6% |
| Cc1ccc(NS(=O)(=O)c2ccc3c(c2)oc(=O)n3C)cc1F | 2% |
| COc1ccc(C(=O)NCCC(C)C)cc1S(=O)(=O)N1CCOCC1 | 2% |
| Cc1oc(-c2cccs2)[n+]([O-])c1C | 0% |
| CCOC(=O)N1CCN(C(=O)CSCC(=O)N=c2sc3ccccc3n2C)CC1 | -2% |
| O=S(=O)(c1ccccc1)N1CCC2(CCCN(c3cccc(-c4ccccc4)c3)C2)CC1 | ? |
| CCCCOC(=O)C1C2C=C[C@]3(CN(C(C)c4ccc(OC)cc4)C(=O)[C@H]13)O2 (stereo partly specified) | 1% |
| CC1(C)CC(=O)C(C=NCCc2ccccn2)=C(O)C1 | 5% |
| COc1cccc(-c2oc3ccccc3c(=O)c2O)c1 | -3% |
| CC1=CCP(=O)(c2ccccc2)C1 (stereo unspecified) | 0% |
| O=C(CNC(=O)c1ccc(Cl)cc1Cl)NCC(=O)Nc1ccccc1N1CCOCC1 | 5% |
| Cc1cccc(NC(=O)N(Cc2nc3ccccc3c(=O)[nH]2)C2CCCC2)c1 | 9% |
| O=C(C(Cc1ccccc1)n1cccc1)N1CCCCC1 (stereo unspecified) | 3% |
| CCCCSc1nc(CCC)cc(=O)[nH]1 | -3% |
| Cc1nc2ncnn2c(C)c1CCC(=O)N1CCc2ccccc21 | 12% |
| c1ccc(CCc2nc(-c3cccnc3)no2)cc1 | 8% |
| O=C(COc1ccc(Cl)cc1)Nc1ccc(Cl)cn1 | -3% |
| CCCCCCn1c(SCCCC)nc2c1c(=O)[nH]c(=O)n2C | 3% |
| CN(C)CC(C)(C)NS(=O)(=O)c1ccc(Cl)cc1 | 13% |
| COC(=O)N1CCC2(CCCN(c3ccccn3)C2)CC1 | 32µM* |
| CCC(C)OC(=O)n1ccc(C(=O)Nc2nccs2)n1 (stereo unspecified) | 4% |
| Cc1ccc(-c2oc3ncnc(N)c3c2-c2ccc(C)cc2)cc1 | 3.2µM* |
| COc1ccc(OC)c(S(=O)(=O)N(C)CC(=O)Nc2ccc3c(c2)OCO3)c1 | 3% |
| Cc1ccc(NC(=O)C2CCCN2S(=O)(=O)c2ccc3c(c2)CCC(=O)N3)cc1Cl (stereo unspecified) | 0% |
| Cc1ccc(S(=O)(=O)N=Nc2c(O)[nH]c3cc(O)c(C(=O)O)cc23)cc1 | -1%[11.4 µM] |
| Cc1ccc(-c2nnn(CC(=O)Nc3ccccc3N3CCOCC3)n2)cc1 | -3% |
| Cc1[nH]nc2c1C(c1ccoc1)C(C#N)=C(N)O2 (stereo unspecified) | -5% |

Part of the list above in another layout.
canonical_smiles: CS(=O)(=O)N(CC(=O)N1CCCCCC1)c1ccc2c(c1)OCCO2
- HSD17B inhib = 6%

canonical_smiles: Cc1ccc(NS(=O)(=O)c2ccc3c(c2)oc(=O)n3C)cc1F
- HSD17B inhib = 2%

canonical_smiles: COc1ccc(C(=O)NCCC(C)C)cc1S(=O)(=O)N1CCOCC1
- HSD17B inhib = 2%

canonical_smiles: Cc1oc(-c2cccs2)[n+]([O-])c1C
- HSD17B inhib = 0%

The listing continues.
| molecule | HSD17B inhib |
| --- | --- |
| CCOC(=O)N1CCC(NCCNC(=O)c2cccs2)CC1 | 2% |
| CCn1c(SCC(=O)Nc2cccc(C(C)=O)c2)nnc1C(C)C | 11% |
| O=C(c1ccncc1)N1CCC2(CC1)CCN(c1cccc(-c3ccccc3)c1)CC2 | -11% |
| O=C(NCCN1CCN(c2ccccc2)CC1)C1(S(=O)(=O)c2ccc(Cl)cc2)CC1 | -8% |
| O=C(Nc1nnc(-c2ccco2)s1)c1ccccc1 | -20% |
| CCCn1c(O)c(CN2CCCC(C)C2)c(C)c(C#N)c1=O (stereo unspecified) | ? |
| O=C(C1CCC1)N1CCc2cc(S(=O)(=O)N3CCCCC3)ccc21 | 0% |
| C=CCn1c(Cc2csc(N)n2)nnc1SCC(=O)Nc1ccc(C(=O)OCC)cc1 | 2% |
| Cc1ccc(-n2nnnc2SCC(=O)Nc2c(C)n(C)n(-c3ccccc3)c2=O)cc1 | 8% |
| O=c1c(-c2ccccc2)nc2cnc(Oc3cccc(Cl)c3)nc2n1C[C@H]1CCCO1 | -66% |
| Cc1ccc(C)c2[nH]c(=O)c(CN(CCN3CCCC3)C(=O)Nc3cccc(Cl)c3)cc12 | -7% |
| CC(=O)N[C@H](CS)C(=O)O | -3% |
| COc1cc2c(cc1OC)CN(C(=O)c1cc3ccccc3oc1=O)CC2 | -4% |
| Cc1cc2oc(=O)cc(CN3CCCc4ccccc43)c2cc1C | -11% |
| COc1ccc(CCNC(=O)C2CCCCC2C(=O)O)cc1OC (stereo unspecified) | -2% |
| CCn1c2ccccc2c2cc(C3C(C#N)=C(N)Oc4n[nH]c(COC)c43)ccc21 (stereo unspecified) | ? |
| Cc1ccc(-n2ncc3c(=O)n(CC#N)cnc32)cc1 | -12% |
| O=C(c1ccncc1)N1CCC2(CCCN(c3ncccn3)C2)CC1 | ? |
| CN(C)CCNc1ccccn1 | 8%[11.4 µM] |
| COc1ccc(Cn2c(=O)[nH]c3cc(C(=O)NCCCN4CCCC4=O)ccc3c2=O)cc1 | ? |
| COc1ccc(CNC(=O)C2CCN(S(=O)(=O)N3CCOCC3)CC2)cc1 | 2% |
| C=CCn1c(=O)c2ccccc2n2c(SCc3csc(-c4ccccc4)n3)nnc12 | -8% |
| CCOC(=O)CCN1C(=O)[C@H]2[C@H]3[C@H](O)[C@H](O)C/C(=N/NC(=O)OCc4ccccc4)[C@@H]3CC[C@@H]2C1=O | 4%[11.4 µM] |
| Cc1cc(C(=O)OCC(=O)N2c3ccccc3CC2C)c(C)o1 (stereo unspecified) | -10% |
| FC(F)(F)c1ccc(C2[C@H]3CN(Cc4ccc(-c5ccccc5)cc4)[C@H](c4ccccc4)C34CC2(c2cccnc2)C4)cc1 (stereo partly specified) | -1% |
| O=C(c1cc2cc(Cl)ccc2oc1=O)N1CCCC1 | ? |
| NC(=O)c1c(NC(=O)CSc2nnc(Cc3ccccc3)n2Cc2ccco2)sc2c1CCC2 | 32µM* |
| COc1cc2[nH]c(=O)n(CCCC(=O)N3CC=C(c4ccccc4)CC3)c(=O)c2cc1OC | 25µM* |
| CC(=O)NC(CCS(C)(=O)=O)C(=O)Nc1c(F)cccc1F (stereo unspecified) | -2% |
| COc1ccc(-c2noc(CCC(=O)Nc3cccnc3)n2)cc1OC | -2% |

Continuation:
| molecule | HSD17B inhib |
| --- | --- |
| CCOc1ccc(N(CC(=O)NCc2ccccc2)S(=O)(=O)c2c(C)noc2C)cc1 | 3% |
| COc1ccc(C(=O)Nn2c(C)ccc2C)cc1OC | 4% |
| Cc1ccc(C(C)NC(=O)c2c(C)noc2C)cc1C (stereo unspecified) | 4% |
| CCOc1ccc(CN2C(=O)c3ccccc3C2C(=O)NCc2cccnc2)cc1 (stereo unspecified) | 0% |
| O=C1Nc2ccccc2C(O)(C(=O)NCc2ccco2)N1c1ccc(Cl)c(Cl)c1 (stereo unspecified) | -3% |
| COc1ccc2c(c1)CCCC21NC(=O)NC1=O (stereo unspecified) | 9% |
| CCCc1c(C)c2ccccc2[nH]c1=O | 0% |
| COC(=O)CSc1nnc(-c2ccoc2C)n1-c1ccc(C)cc1 | 9% |
| COC(=O)c1cn(NC(=O)C2COc3ccccc3O2)c(=O)c2ccccc12 (stereo unspecified) | ? |
| COc1ccc(-n2c(=O)c(-c3ccccc3)nc3cnc(N4CCNCC4)nc32)cc1 | 10% |
| FC(F)(F)c1ccccc1-c1nc(NCCN2CCOCC2)c2ccccc2n1 | -1% |
| O=C(c1ccco1)N1CCC(c2nc(-c3ccc(F)cc3)no2)CC1 | 5% |
| CNC(=O)c1cc2cccc(OC)c2oc1=O | ? |
| CC(Sc1nc(NCc2ccccc2)nc(N2CCOCC2)n1)C(=O)Nc1ccccc1 (stereo unspecified) | 5% |
| N#CC1=C(N)Oc2n[nH]c(-c3ccc(F)cc3)c2C1c1ccncc1 (stereo unspecified) | -6% |
| CC1(C)C(C=C(Cl)Cl)C1C(=O)N1CCN(c2ccccc2)CC1 (stereo unspecified) | 0% |
| COc1cc2cc(C(c3nnnn3C(C)(C)C)N3CCc4ccccc43)c(=O)[nH]c2cc1OC (stereo unspecified) | ? |
| CCCc1nnc(NC(=O)CCC(=O)N2CCN(CCOc3ccc(C)cc3)CC2)s1 | -3% |
| COC(=O)/C=C\c1cc(O)ccc1O | 1µM* |
| CCOc1ccccc1NC(=O)CN(Cc1ccccc1)S(C)(=O)=O | -1% |
| CC(C)C(=O)NC(=O)C1CCCN1C(=O)/C=C/c1ccccc1 (stereo unspecified) | 0%[11.4 µM] |
| C[C@@H](C(=O)NCC1CC1)[C@@H]1C[C@@]1(C)[C@@H](NC(=O)OCc1ccccc1)c1ccccc1 | 9% |
| O=C(CSc1nc2ccccc2[nH]1)c1ccc2c(c1)OCO2 | -27% |
| O=C(O)CN1C(=O)CC(Cc2ccc(Cl)cc2)C1=O (stereo unspecified) | 12% |
| CCOC(=O)CN1CC23C=CC(O2)C(C(=O)NCc2cccs2)C3C1=O (stereo unspecified) | 8% |
| CC1(C)CC(OC(=O)c2ccco2)CC(C)(C)N1O | 2% |
| CCOC(=O)Cn1c(C(F)(F)F)nc2nc(Cl)c(Cl)nc21 | 1%[11.4 µM] |
| O=C(c1ccccc1)N1CCN(CC#CC2(O)CCCCC2)CC1 | 3% |
| COc1ccccc1N1CCN(CC(=O)c2c(C)[nH]c3ccccc23)CC1 | 3% |
| CC(=O)N1CCC2(CC1)CCN(c1ncccn1)CC2 | -24% |
| CC1(C)C(=O)OC(c2cccs2)C(C)(C)C1=O (stereo unspecified) | 4% |
